StopGo reporter: FMDV 2A StopGo reporter, luciferase signal; actives 1.2% (n = 410,000); human cells with a luciferase reporter of 2A StopGo recoding; control for the full effect not named in the record; AID 1159524; Potency, µM (doses to about 57.9 µM), without a hit: at the top dose signal change, negative = less light; active = well fitted falling curve with a large enough effect; inconclusive = small, poorly fitted or top-dose-only effect; inactive = no such curve, though single readings can be large or run the other way; tested in HEK293T cells; also: % is scaled to controls: 0 for no effect and ±100 for the full control effect; nearly all actives have a fitted effect of over 45% in size; luciferase light after 4 h
SARS PLP yeast: blocks SARS-CoV papain-like protease in a yeast assay; actives 0.19% (n = 330,000); Potency, µM (doses to about 32.9 µM), for inactives: at the top dose activity, positive = growth rescue; S. cerevisiae expressing SARS-CoV PLpro, growth rescue; control for the full effect not named in the record; active means well fitted rising curve with a large enough effect; inconclusive means small, poorly fitted or top-dose-only effect; inactive means no such curve, though single readings can be large or run the other way; also: 0% is about no effect; nearly all actives have a fitted effect of over 55% in size; growth read by luminescence after 48 h
RE007 growth inh: less growth of the S. pombe RE007 Vpr strain. S. pombe RE007 Vpr strain, BacTiter-Glo ATP luminescence, 24 h; control for the full effect not named in the record. Potency, µM (top dose mostly 92.2 µM), for the others: top-dose activity change, negative = less growth. actives 0.21% (n = 360,000); active = well fitted falling curve with a large enough effect; inconclusive = small, poorly fitted or top-dose-only effect; inactive = no such curve, though single readings can be large or run the other way;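 also: % is scaled to controls: 0 for no effect and ±100 for the full control effect; nearly all actives have a fitted effect of over 50% in size; the assay follows cell death caused by Vpr and the record does not say whether a fall means rescue or toxicity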
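Fission yeast strain RE007, carrying one chromosomally integrated HIV-1 vpr copy, was seeded at OD 0.01 in PMG+AL medium with 23 nL pinned compound. After 24 h at 30 °C and 99% humidity, viability was read by BacTiter-Glo luminescence.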
Marburg entry inh: inhibitors of Marburg virus binding or cell entry; Potency, µM (titrated, usually from 37.8 µM), without a hit: at the highest dose activity change, negative = inhibition, usual class: inhibitors; Marburg virus pseudotyped entry inhibition, cell reporter; control for the full effect not named in the record; about a third of the inactives were read at about 46 µM; actives 1.8% (n = 300,000); active = well fitted inhibition curve with a large enough effect; inconclusive = small, poorly fitted or top-dose-only effect, or effect the other way; inactive = flat fitted curve, though single readings scatter; tested in HEK293 cells; about a fifth of its hits are not listed in these tables; also: % is scaled to controls: 0 for no effect and ±100 for the full control effect; luciferase read-out
NS1 function inh: influenza NS1 inhibition | S. cerevisiae slowed by influenza A NS1, growth recovery by OD600 | Potency, µM (series often up to 46.1 µM), for the others: at the highest dose activity, positive = more growth | actives 0.4% (n = 270,000); active means well fitted rising curve with a large enough effect; inconclusive means small, poorly fitted or top-dose-only effect; inactive means no such curve, though single readings can be large or run the other way; also: nearly all actives have a fitted effect of over 50% in size
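Read-out: OD600 growth recovery of NS1-expressing budding yeast. Cells grown overnight at 30C in -URA glucose medium, washed, resuspended and diluted 1:100 in 2% galactose assay medium, pH 6.0. Same strain lacking NS1 served as positive control.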
Cruzain inh Det: blocks cruzain activity in presence of Triton detergent; Potency, µM, for inactives: max response, negative = inhibition, actives largely listed as inhibitors; purified cruzain, Z-FR-AMC fluorescence, 0.01% Triton; P25779; actives 0.43% (n = 200,000);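 also: plate controls were neutral wells for no effect and buffer without enzyme for full effect; nearly all actives have a fitted effect of over 40% in size; top concentration of the series not given in the record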
Target sequence (P25779 123-467 limits assumed): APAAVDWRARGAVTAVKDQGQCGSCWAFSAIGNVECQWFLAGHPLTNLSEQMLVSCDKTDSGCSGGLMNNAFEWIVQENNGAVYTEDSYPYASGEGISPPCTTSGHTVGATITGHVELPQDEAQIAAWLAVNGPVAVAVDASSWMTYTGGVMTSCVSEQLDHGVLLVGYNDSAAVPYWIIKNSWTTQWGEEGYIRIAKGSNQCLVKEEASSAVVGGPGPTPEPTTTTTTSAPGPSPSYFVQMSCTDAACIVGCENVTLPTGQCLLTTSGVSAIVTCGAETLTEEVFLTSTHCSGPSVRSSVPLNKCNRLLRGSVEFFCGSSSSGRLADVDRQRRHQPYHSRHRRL
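Steps: dispense cruzain (1.5 nM final) in acetate buffer pH 5.5 with DTT and 0.01% Triton X-100; pin-transfer compounds; incubate 15 min RT; add Z-FR-AMC (2 uM final); read fluorescence every 30 s, using the 60 s intensity change.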
Cruzain noTriton: blocks cruzain activity in detergent-free assay. P25779. purified cruzain, Z-FR-AMC fluorescence, no detergent. Potency, µM, for the others: max response, negative = inhibition, usual class: inhibitors. actives 2.3% (n = 200,000). AID 1476;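 also: plate controls were enzyme without inhibitor for no effect and buffer without enzyme for full effect; nearly all actives have a fitted effect of over 40% in size; top concentration of the series not given in the record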
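Detergent-free condition (0.00005% Triton X-100) in acetate buffer pH 5.5 with DTT. 1.5 nM enzyme and compound were pre-mixed 15 min, then 2 uM Z-FR-AMC substrate added; reaction progress from fluorescence change between first and third reads (60 s).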
LASV entry inh: Lassa virus entry inhibition; Potency, µM (series often up to 37.9 µM), for inactives: at the highest dose activity change, negative = inhibition, most hits filed as inhibitors; Lassa virus pseudotype entry inhibition, cell reporter; control for the full effect not named in the record; actives 1.2% (n = 300,000); active means well fitted inhibition curve with a large enough effect; inconclusive means small, poorly fitted or top-dose-only effect, or effect the other way; inactive means flat fitted curve, though single readings scatter; tested in HEK293 cells; also: % is scaled to controls: 0 for no effect and ±100 for the full control effect; nearly all actives have a fitted effect of over 50% in size; luciferase read-out
* = called active by the depositor; ? = inconclusive; / = not tested or not shown; & = joins results of further samples; [ ] = dose if it differs, or a comment. Unless noted, calls follow the shape of the dose curve; as a rule, active = well fitted curve in the direction sought with a large enough effect; inconclusive = small, poorly fitted or top-dose-only effect, or another doubt; inactive = no such curve, though single readings can be large; an effect the other way counts as inactive or inconclusive. Potency is read from the fitted curve at half-maximal effect.

(1) C=CCn1c(O)c(CN2CCN(Cc3ccccc3)CC2)c(C)c(C#N)c1=O
(2) CCC(C)(C)NC(=O)CN(C(=O)CNS(=O)(=O)c1ccc(C)cc1)c1ccc2c(c1)OCCO2
(3) O=C(NCCc1c[nH]c2ccccc12)C1Cc2ccccc2CN1C(=O)c1ccco1 (stereo unspecified)
(4) COC(=O)CCCNC(=O)c1ccc2[nH]c(C)c(C)c2c1
(5) Clc1cccc(N2CCN(c3c4c(nc5nncn35)CCC4)CC2)c1
(6) Cc1cc(/C=C(/C#N)C(=O)O)c(C)n1-c1cccc2ccccc12
(7) Oc1ccc(N=Cc2ccc(OCc3ccccc3)cc2)cc1
(8) Cn1c(=O)c2c(nc(N3CCN(Cc4ccccc4)CC3)n2CCSc2ncccn2)n(C)c1=O

screen / no.,1,2,3,4,5,6,7,8
StopGo reporter,-14%,3%,-3%,33%[activator],22µM*,3%,85%[activator],/
SARS PLP yeast,11%,2%,2%,-1%,/,0%,-2%,2%
RE007 growth inh,16%,18%,-4%,-7%,/,2%,-1%,/
Marburg entry inh,4%,-22%&-22%[46.1 µM],14%,28%,?,?,/,/
NS1 function inh,2%,-6%,3%,/,/,-63%,-6%,3%
Cruzain inh Det,-6.2%,1.2%,3.7%,/,6.7%,/,/,-1.2%
Cruzain noTriton,-1%,3%,-6%,/,11%,/,/,0%
LASV entry inh,-5%,-2%,?,-16%,9%[46.1 µM],5%,/,/

(9) N#C/C(=C\c1cn(CC(=O)N2CCCCC2)c2ccccc12)C(=O)NCc1ccc2c(c1)OCO2
(10) O=C(Nc1ccc(NC(=O)c2ccc(Cl)cc2Cl)cc1)c1ccc2c(c1)OCO2
(11) COc1cc(Cc2nccc3cc(OC)c(OC)cc23)c(S(=O)(=O)O)cc1OC
(12) CN(C)CCCNc1c2c(c(C#N)c3nc4ccccc4n13)CCC2
(13) CCn1c(=O)c2cc(C(=O)NCCCN3CCC(C)CC3)sc2c2ccccc21
(14) Cc1ccc(S(=O)(=O)N2CCN(C(=O)c3cccs3)CC2)cc1C
(15) CCc1sc(NC(C)=O)nc1-c1ccccc1
(16) Cc1c(Cl)cccc1NC(=O)Nc1ccc(C(=O)N2CCCC2)cc1

screen / no.,9,10,11,12,13,14,15,16
StopGo reporter,-24%,5%,-1%,/,-7%,-16%,0%,21%
SARS PLP yeast,7%,1%,-2%,-2%,/,3%,-1%,-7%
RE007 growth inh,-11%,-13%,-2%,/,/,23%,-10%,-14%
Marburg entry inh,3%,2%[46.1 µM],18%[46.1 µM],/,?,?,/,13%
NS1 function inh,14%,1%,3%,-15%,/,/,-37%,3%
Cruzain inh Det,-1.4%,/,/,-5.8%,-5.0%,/,/,-0.7%
Cruzain noTriton,-8%,/,/,-10%,2%,/,/,-1%
LASV entry inh,-10%,13%[46.1 µM],2%,/,?,?,/,?

One compound at a time (already shown):
N#C/C(=C\c1cn(CC(=O)N2CCCCC2)c2ccccc12)C(=O)NCc1ccc2c(c1)OCO2 across the screens: StopGo reporter: -24%; SARS PLP yeast: 7%; RE007 growth inh: -11%; Marburg entry inh: 3%; NS1 function inh: 14%; Cruzain inh Det: -1.4%; Cruzain noTriton: -8%; LASV entry inh: -10%
COc1cc(Cc2nccc3cc(OC)c(OC)cc23)c(S(=O)(=O)O)cc1OC across the screens: StopGo reporter: -1%; SARS PLP yeast: -2%; RE007 growth inh: -2%; Marburg entry inh: 18%[46.1 µM]; NS1 function inh: 3%; Cruzain inh Det: /; Cruzain noTriton: /; LASV entry inh: 2%

Later entries:
(17) CCCCn1nnc(NC(=O)c2ccc([N+](=O)[O-])cc2Cl)n1
(18) O=C(CSc1ccc([N+](=O)[O-])cn1)Nc1ccc2c(c1)OCCO2
(19) CCC(=O)N1CCc2cc(Br)cc(S(=O)(=O)CCC(=O)Nc3cccc(CC)c3)c21
(20) COC(=O)c1ccc(S(=O)(=O)NCc2ccc(S(N)(=O)=O)cc2)o1
(21) O=C(OCc1ccccc1)/C(=C/c1ccc(Cl)cc1)NC(=O)c1ccccc1Cl
(22) O=c1cc(Cn2ccnc2)c2cc(O)ccc2o1
(23) COCCNC(=O)Cn1nc(-c2ccc(C)cc2)ccc1=O
(24) Cc1oc(-c2ccc(Cl)cc2)nc1CS(=O)CC(=O)NCc1cccs1 (stereo unspecified)

screen / no.,17,18,19,20,21,22,23,24
StopGo reporter,18%,11%,-18%,-9%,4%,2%,-10%,-13%
SARS PLP yeast,0%,1%,/,-2%,2%,-2%,-10%,14%
RE007 growth inh,5%,6%,/,1%,22%,-13%,6%,-13%
Marburg entry inh,/,7%,0%[46.1 µM],-18%[46.1 µM],-2%[46.1 µM],/,16%,/
NS1 function inh,9%,5%,/,-1%,?,7%,4%,10%
Cruzain inh Det,/,/,-0.5%,/,?,/,/,-2.4%
Cruzain noTriton,/,/,11%,/,-23%,/,/,17%
LASV entry inh,/,0%,1%[46.1 µM],5%,-11%,/,3%,/

(25) O=C1OCC(c2ccccc2)=C1c1ccccc1
(26) Cc1cc(=O)[nH]c(SCC(=O)Nc2nc(-c3ccccc3)c(-c3ccccc3)o2)n1
(27) c1ccc2c(c1)nnn1c3ccccc3nc21
(28) Cn1c(=O)c2ccccc2n(Cc2cccc(F)c2)c1=O
(29) COc1ccccc1-c1c(C(F)(F)F)oc2c(CN3CCCCC3C)c(O)ccc2c1=O (stereo unspecified)
(30) Cc1cc(S(=O)(=O)N2CCOCC2)ccc1OCC(=O)N1CCCCC1
(31) O=C(NC(=S)Nc1ccc(N2CCOCC2)cc1)c1cccs1
(32) CN(Cc1cccc(Cl)c1)C(=O)C1CCC(=O)N(C2CC2)C1 (stereo unspecified)

screen / no.,25,26,27,28,29,30,31,32
StopGo reporter,-13%,7%,/,-24%,-22%,-9%,80%[activator],12%
SARS PLP yeast,-2%,-33%,-5%,-1%,/,-1%,0%,-2%
RE007 growth inh,-9%,-3%,/,71%,/,-1%,-2%,-4%
Marburg entry inh,18%[46.1 µM],7%[46.1 µM],-6%,?,/,9%[46.1 µM],/,/
NS1 function inh,-33%,?,-103%,13%,/,14%,3%,0%
Cruzain inh Det,/,-12%,0.0%,/,-5.7%,/,/,/
Cruzain noTriton,/,?,1%,/,-10%,/,/,/
LASV entry inh,-30%,5%,/,3%[46.1 µM],7%[46.1 µM],1%,/,/

(33) Cc1cc(C(=O)NCc2ccccc2Cl)c2c(C)nn(-c3cccc(F)c3)c2n1
(34) COc1ccc(C2CC(=O)N3CN(C4CCCCC4)CSC3=C2C#N)c(OC)c1 (stereo unspecified)
(35) O=C(CN1C(=O)NC2(CCCCCCC2)C1=O)NC(=O)NCc1ccco1
(36) Cc1ccc(NC(=O)CN(C)C(=O)c2cccc(-n3cccc3)c2)cc1
(37) Cc1ccc(-c2nn3c(-c4ccccc4C)nnc3c3ccccc23)cc1
(38) CCCCCn1c(=O)[nH]c2cc(C(=O)N3CCN(c4cccc(C(F)(F)F)c4)CC3)ccc2c1=O
(39) CSc1ncccc1C(=O)OCC(=O)NC1CCCC1
(40) Cc1ccc(-c2nc(CN(C)C3CCOC3)c(C)o2)s1 (stereo unspecified)

screen / no.,33,34,35,36,37,38,39,40
StopGo reporter,20%,-5%,-15%,-9%,0%,?,14%,17%
SARS PLP yeast,/,/,4%,2%,/,/,0%,0%
RE007 growth inh,/,/,5%,-22%,/,/,18%,-10%
Marburg entry inh,/,5%[46.1 µM],5%,-24%,-4%[46.1 µM],19%[46.1 µM],10%,-24%[46.1 µM]
NS1 function inh,/,/,1%,/,/,/,/,0%
Cruzain inh Det,-3.2%,25µM*,-2.8%,/,-1.2%,-7.0%,/,/
Cruzain noTriton,-5%,28%,2%,/,2%,2%,/,/
LASV entry inh,13%[46.1 µM],17%[46.1 µM],-20%,8%,-1%[46.1 µM],8%[46.1 µM],-4%,25%[46.1 µM]

(41) Cc1nc2cc(NS(=O)(=O)c3ccccc3F)ccc2s1
(42) O=C(c1ccncc1)c1ccc(N2CCN(C3CC(=O)N(Cc4ccccc4)C3=O)CC2)cc1 (stereo unspecified)
(43) CCn1nc(NC(=O)c2ccncc2)c2cc3cc(C)ccc3nc21
(44) FC(F)(F)c1nnc2sc(-c3cccs3)nn12
(45) O=C(CCCCn1c(=O)c2ccccc2n(CC(=O)Nc2ccccc2)c1=O)NCc1ccco1
(46) O=C(COc1ccc(F)cc1F)NNC(=O)Nc1cccc([N+](=O)[O-])c1
(47) COC(=O)C1(Cc2cc(-c3ccc(OC)cc3OC)no2)CCN(C(=O)OC(C)(C)C)CC1
(48) COc1ccc(CCNC(=O)CCc2ccc(S(=O)(=O)NCC(C)C)cc2)cc1
(49) c1ccc(-c2nnc(-c3c[nH]c4ccccc34)nc2-c2ccccc2)cc1
(50) CC(C)c1ccc(S(=O)(=O)/N=C2/C=C(Sc3ncn[nH]3)C(=O)c3ccccc32)cc1

screen / no.,41,42,43,44,45,46,47,48,49,50
StopGo reporter,4%,16µM*,-9%,19%,3%,-1%,-23%,27%,?,22µM*
SARS PLP yeast,-1%,-18%,10%,-2%,3%,2%,4%,9%,-30%,-84%
RE007 growth inh,-3%,-22%,5%,?,19%,4%,5%,-9%,-5%,?
Marburg entry inh,/,?,-14%,1%,-2%&15%,2%,/,?,?,?
NS1 function inh,-4%,-55%,-50%,-5%,1%,-4%,-2%,-5%,27%,-17%
Cruzain inh Det,/,-9.4%,-2.7%,1.7%,0.7%,/,/,-2.5%,-4.8%,-14%
Cruzain noTriton,/,?,?,1%,-4%,/,/,7%,?,13µM*
LASV entry inh,/,?,21%,-4%,-6%,-21%,/,?,?,?
